From PubChem
PKD1 inh = inhibitors of human PKD1 kinase; inhibition, %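 (about 10 µM by stock and volumes)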; PKD1 kinase fluorescence polarization assay; 0.056% of 200,000 active; Q15139;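 active = inhibition of 50% or more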;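 note: controls were vehicle for no effect and a reference inhibitor for full effect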
HSV augment = increases HSV replication in cells; AID 1956; maximum fold increase; 0.005% of 220,000 active; HSV replication augmentation in cells, fold increase;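 active = peak rise of 1.5-fold or more in the series; tested in PC3 cells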;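 note: first round at 10 µM; read as green reporter fluorescence; hits show the peak of a series up to 25 µM; 1 = signal of infected wells without compound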
RGS16-Gao = regulators of human RGS16-Galphao interaction | O15492+P09471 | bead-based flow cytometry RGS16-Galphao binding, fluorescence; actives lie on both sides | binding response (% of control), % at 10 µM | 0.38% of 220,000 active | AID 1441;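 active = below 25% or above 175%, edge rows of some plates excepted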;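 note: Galphao activated by GDP with aluminum fluoride before binding; 100% = wells without compound and 0% = beads without RGS; some results beyond the cut were filed as inactive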
Target sequence (O15492 whole entry, looked up): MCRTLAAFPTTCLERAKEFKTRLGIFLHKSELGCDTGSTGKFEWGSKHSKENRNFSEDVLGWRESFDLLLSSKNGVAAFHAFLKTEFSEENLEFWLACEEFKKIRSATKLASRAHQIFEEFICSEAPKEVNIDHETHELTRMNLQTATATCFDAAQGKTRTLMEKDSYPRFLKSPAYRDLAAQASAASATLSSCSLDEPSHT
Target sequence (P09471 whole entry, looked up): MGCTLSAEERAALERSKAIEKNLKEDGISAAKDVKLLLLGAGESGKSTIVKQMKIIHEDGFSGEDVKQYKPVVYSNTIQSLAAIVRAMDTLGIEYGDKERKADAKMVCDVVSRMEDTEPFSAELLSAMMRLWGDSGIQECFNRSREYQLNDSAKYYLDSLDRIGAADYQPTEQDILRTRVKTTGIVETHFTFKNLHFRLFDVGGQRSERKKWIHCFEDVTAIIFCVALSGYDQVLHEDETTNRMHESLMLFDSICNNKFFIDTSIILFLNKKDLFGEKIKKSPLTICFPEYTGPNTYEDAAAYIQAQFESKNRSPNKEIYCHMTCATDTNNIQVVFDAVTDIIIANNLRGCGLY
INS promoter inh = TRM-6 insulin promoter activity inhibition; TRM-6 cells (human fetal islet line), insulin promoter-eGFP reporter, imaging; reporter expression induced with tamoxifen; inhibition, % at 2 µM; 0.9% of 130,000 active; AID 1273;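 active = inhibition above the mean plus 3 SD, with well images judged a real hit on visual review, cut at about 60% in these data, passing the limit was not always enough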
GALR2 ag = agonists of human galanin receptor 2 (GALR2) | activation, %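 (tested at 5 µM)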 | AID 803 | GALR2-expressing cells, agonist activation read-out | O43603 | 0.48% of 140,000 active;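 active = above mean plus 3 SD of all compounds, about 5% in these data, not always enough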;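 note: 0% = vehicle buffer wells and 100% = reference agonist at full effect; tested in CHO reporter cells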
INS promoter inh cell count = also measured in INS promoter inh; calls as there; normalized cell count, %; measured here: cell count, toxicity; reference of the scale not given here;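 cells exposed to compound for 48 h; stained nuclei by imaging scaled within each plate; lower means fewer cells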
HSV augment primary fold = further read-out of HSV augment, marked with its call; fold increase; compound at 10 µM; measured here: primary screen fold increase 10 uM; tested in PC3 cells;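 GFP signal in the first replicate; 1 = infected wells without compound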
An asterisk follows results filed as active; i = inactive; . = not tested or not shown.

SMILES	PKD1 inh	HSV augment	HSV augment primary fold	RGS16-Gao	INS promoter inh	INS promoter inh cell count	GALR2 ag
CNc1ncc(C(=O)c2ccc(Cl)c(Cl)c2)s1	1.9	i	0.93	97.3	18.0	78.0	-1.7
NS(=O)(=O)c1ccc(CCNC(=O)C(=O)c2c[nH]c3ccccc23)cc1	0.8	i	0.89	89.1	16.0	124.4	-0.3
O=C(CCNS(=O)(=O)c1cccc2nonc12)NC1CCCCCC1	3.2	i	0.93	108.2	-22.2	42.5	.
COCCn1c(SCC(=O)Nc2cc(OC)ccc2OC)nc2c(c1=O)SC(C)C2 (stereo not drawn)	.	i	0.98	87.2	.	.	.
Cc1cc(NC(=O)CSc2nnc(C(C)N(C)C)n2-c2ccc(F)cc2)no1 (stereo not drawn)	-1.7	i	0.92	90.4	.	.	.
Cc1ccc(-c2nn(-c3ccccc3)cc2CO)o1	-5.2	i	0.85	57.2	18.8	115.2	-2.3
O=C(NN1C(=O)C2C(C1=O)C1C=CC2C12CC2)c1ccccc1 (stereo not drawn)	-4.0	i	0.95	95.7	.	.	.
COc1cc(OC)c(C2C(C#N)=C(N)OC3=C2C(=O)CC(C)(C)C3)cc1OC (stereo not drawn)	-9.4	i	0.92	93.6	-11.7	28.9	-0.9
Cn1c(-[n+]2c(-c3ccccc3)cc(-c3ccccc3)cc2-c2ccccc2)nc2cc([N+](=O)[O-])ccc21	-1.1	i	1.07	97.6	.	.	-0.9
Cc1ccc(C(=O)c2c(NC(=O)c3ccccc3)sc(C)c2C)cc1	-16.7	i	1.08	39.9	0.0	120.5	-3.9
CCC(C)NC(=O)CSc1ccc(NC(C)=O)cc1 (stereo not drawn)	0.6	i	0.99	99.3	.	.	-1.8
Cc1cc(CN2CCOCC2)c(O)c(C2(C)CCCCC2)c1	-6.8	i	1.11	119.9	25.0	137.8	-0.4

Reprinted at random: seven compounds from above.
SMILES	PKD1 inh	HSV augment	HSV augment primary fold	RGS16-Gao	INS promoter inh	INS promoter inh cell count	GALR2 ag
CNc1ncc(C(=O)c2ccc(Cl)c(Cl)c2)s1	1.9	i	0.93	97.3	18.0	78.0	-1.7
COCCn1c(SCC(=O)Nc2cc(OC)ccc2OC)nc2c(c1=O)SC(C)C2 (stereo not drawn)	.	i	0.98	87.2	.	.	.
NS(=O)(=O)c1ccc(CCNC(=O)C(=O)c2c[nH]c3ccccc23)cc1	0.8	i	0.89	89.1	16.0	124.4	-0.3
Cc1cc(CN2CCOCC2)c(O)c(C2(C)CCCCC2)c1	-6.8	i	1.11	119.9	25.0	137.8	-0.4
Cc1cc(NC(=O)CSc2nnc(C(C)N(C)C)n2-c2ccc(F)cc2)no1 (stereo not drawn)	-1.7	i	0.92	90.4	.	.	.
Cc1ccc(C(=O)c2c(NC(=O)c3ccccc3)sc(C)c2C)cc1	-16.7	i	1.08	39.9	0.0	120.5	-3.9
Cn1c(-[n+]2c(-c3ccccc3)cc(-c3ccccc3)cc2-c2ccccc2)nc2cc([N+](=O)[O-])ccc21	-1.1	i	1.07	97.6	.	.	-0.9

Following part.
SMILES	PKD1 inh	HSV augment	HSV augment primary fold	RGS16-Gao	INS promoter inh	INS promoter inh cell count	GALR2 ag
COC(=O)C1=C(C)N(c2ccc(OC)c(OC)c2)C(=O)/C1=C\c1ccco1	5.9	i	1.05	101.3	-5.9	58.8	.
O=c1c2c([nH]c3ccccc13)CCCCCC2	-1.0	i	0.88	98.2	-19.1	56.1	-0.6
CCc1sc(NC(=O)C(C)C)nc1-c1ccccc1	-6.9	i	0.89	99.9	.	.	.
COc1ccc(NC(=O)N2CCN(c3cccc(C(F)(F)F)c3)CC2)cc1OC	-5.6	i	0.86	97.6	29.4	96.1	-0.8
Cc1ccc(NC(=O)NNC(=O)C2CC(c3cccnc3)=NO2)cc1 (stereo not drawn)	-9.8	i	0.98	99.0	.	.	-1.0
COc1ccc(Nc2nc3ccccc3nc2C)cc1	-9.7	i	0.9	106.5	-90.9	167.0	0.5
CCNC(=S)N/N=C/c1c(C)nn(-c2cccc(Cl)c2)c1Cl	-11.7	i	0.75	110.7	45.5	120.6	2.6
Cc1n(CC(=O)c2ccc(F)cc2)c2ccccc2[n+]1C	1.6	i	1.1	86.5	33.3	169.2	.
O=C(N1CCN(c2ccc(F)cc2)CC1)C12CC3CC(CC(C3)C1)C2	-5.6	i	1.01	100.9	33.3	134.8	-0.5
O=C(Nc1nc(-c2nc3ccccc3s2)cs1)C1CC1	4.7	i	0.74	102.6	14.3	164.8	-0.6
CCNC(=S)N/N=C(\C)c1ccco1	10.0	i	0.97	101.1	.	.	.
O=[N+]([O-])c1ccccc1-n1cnc2ccccc21	1.0	i	0.91	104.1	-72.2	43.2	.
CCSc1nnc(NC(=O)c2nc(-c3ccccc3)n(-c3ccccc3)n2)s1	4.9	i	0.85	92.3	18.2	123.8	-0.7
CCN(CC)C(=O)C1CCC(C)(C(=O)O)C1(C)C (stereo not drawn)	-2.7	i	0.937	75.2	-6.2	174.2	-1.7
OCCC1CN(Cc2cnn(-c3ccccc3Cl)c2)CCN1Cc1ccsc1 (stereo not drawn)	0.9	i	0.9	102.4	.	.	.
O=C(c1cccc(Br)c1)N1CCN(C(=O)N2CCOCC2)CC1	-6.5	i	1.06	102.6	33.3	104.3	-1.3
Cc1nc(NCCN2CCOCC2)c2nnn(Cc3ccccc3Cl)c2n1	9.1	i	0.99	92.8	31.2	115.5	2.5
COc1ccc(CCNc2cc(C)nc3c(-c4ccccc4)c(C)nn23)cc1OC	3.3	i	0.6	103.1	.	.	0.1
CCn1c(-c2cc(-c3cc(OC)ccc3OC)nc3ccccc23)n[nH]c1=S	-2.6	i	0.95	98.7	-24.3	43.0	-0.6
CS(=O)(=O)Nc1ccccc1C(=O)Nc1cccc(Cl)c1	-2.4	i	0.91	102.2	-120.0	86.4	-1.8
O=C1c2cnc3nc(SCc4ccc(Cl)cc4)nn3c2CC2c3ccccc3CCN12 (stereo not drawn)	-5.7	i	0.96	103.7	.	.	3.6
COc1ccc(C2C(C)C3(O)CC(C#N)(C(=O)N3)C2(C#N)C#N)cc1 (stereo not drawn)	.	i	1.28	100.2	.	.	.
CC(=O)N(c1ccc(Cl)cc1)c1c[nH]c2ccccc12	-2.6	i	0.92	106.0	.	.	-1.6
CCOc1cc(/C=N\Nc2ncc(F)c(N3CCOCC3)n2)ccc1Oc1nc(Cl)ncc1F	.	i	0.95	97.9	.	.	.
COc1ccccc1CNC(=O)CCNC(=O)Cn1cnc2ccccc2c1=O	-5.2	i	1	102.0	.	.	-0.2
C=CCn1c(SCC(=O)NC2CCS(=O)(=O)C2)nc2sc(CC)cc2c1=O (stereo not drawn)	-7.5	i	0.79	99.0	50.0	53.9	-1.6
COc1cc(/C=N/n2c(C)nnc2C)cc(OC)c1OC	-3.3	i	0.71	87.9	8.7	116.3	-1.2
CC(=O)Nc1ccc(S(=O)(=O)N2CCNC(=O)CC2)cc1	1.0	i	0.94	3.5	24.3	127.2	-2.0
CCCc1cc(=O)[nH]c(SCC(=O)c2cc(C)n(C)c2C)n1	-4.4	i	0.93	100.2	-46.9	147.0	-0.5
CN(CC(=O)NC1CC1)S(=O)(=O)c1ccc(F)cc1	0.7	i	0.91	99.3	0.0	93.8	.
CCOc1ccccc1N1CCN(C(=O)CCCc2nc3ccccc3s2)CC1	-2.6	i	1.01	91.5	-41.2	75.4	-1.6
CN(Cc1ccccc1)C(=O)c1ccc([N+](=O)[O-])o1	5.7	i	0.9	100.4	.	.	0.6
Cc1cc(Cl)c(OCCCn2ccnc2)c(Br)c1	-4.2	.	.	105.9	0.0	103.1	-1.5
CCCNC1=CC(=O)CC(C)(C)C1	-2.8	i	0.88	102.2	21.4	121.8	-1.2
CCCCCCn1c(CN2CCCC(C)C2)nc2c1c(=O)n(C)c(=O)n2C (stereo not drawn)	-6.1	i	0.84	105.1	32.0	102.5	-0.8
NC(=O)Oc1cccc(OC(N)=O)c1	.	i	0.98	99.8	.	.	.
CCN(CC)c1ccc(-c2nn3c(-c4n[nH]c5c4CCC5)nnc3s2)cc1	9.9	i	0.68	99.1	.	.	6.3*
COC(=O)Oc1ccc(/C=C/C(=O)OC(C)C)cc1OC(=O)OC	0.6	i	0.83	98.6	.	.	-0.9
O=C(CCl)NN1C(=O)NC2(CCCCC2)C1=O	1.4	i	0.85	93.0	.	.	.
c1ccc(-n2nnnc2N2CCOCC2)cc1	4.2	i	0.81	98.4	-35.7	116.8	0.7
CC(C)CNC(=O)c1c(N)n(/N=C/c2ccccn2)c2nc3ccccc3nc12	-3.5	i	0.87	96.3	-6.2	84.2	0.1
CC(C)c1nn2c(=O)cc(O)nc2s1	-11.1	i	1.05	105.5	-30.0	115.6	-0.3
COCCNC(=O)C(c1ccccc1C)N(C(=O)Cn1nnc2ccccc21)c1cccnc1 (stereo not drawn)	-11.6	i	1	112.9	-225.0	106.9	0.1
COc1cccc(NC(=O)N(Cc2cc3cc(C)cc(C)c3[nH]c2=O)CC2COCCO2)c1 (stereo not drawn)	6.1	i	0.97	98.5	-25.8	89.5	-3.1
CCC(=O)Nc1c(C)cc(C)cc1Cl	-2.4	i	0.833	106.3	-38.5	84.4	-1.3
Cc1ccccc1N=C1NC(=O)CS1	-7.2	i	1.07	101.0	-15.2	122.7	-2.5
Cc1c(Cl)cnc(NC(=O)CSc2nnc(C)n2Cc2ccccc2)c1Cl	3.0	i	0.997	95.1	-6.2	113.2	-1.7
COc1ccc(C(c2c(C)n(C)n(-c3ccccc3)c2=O)c2c(C)n(C)n(-c3ccccc3)c2=O)cc1O	-1.0	i	0.78	107.5	0.0	166.1	.
COC(=O)c1cc(=O)n(CCc2ccc(OC)cc2)c(=Nc2ccc(F)c(Cl)c2)s1	7.2	i	0.56	100.2	.	.	-2.2
CCn1c(-c2ccc(OC)c(OC)c2)n[nH]c1=S	-3.0	i	0.88	97.2	2.9	81.5	-1.2

By substructure: those above with bromine
SMILES	PKD1 inh	HSV augment	HSV augment primary fold	RGS16-Gao	INS promoter inh	INS promoter inh cell count	GALR2 ag
O=C(c1cccc(Br)c1)N1CCN(C(=O)N2CCOCC2)CC1	-6.5	i	1.06	102.6	33.3	104.3	-1.3
Cc1cc(Cl)c(OCCCn2ccnc2)c(Br)c1	-4.2	.	.	105.9	0.0	103.1	-1.5
